High-throughput results as filed in PubChem BioAssay.
gsp ag = gsp mutant agonism; gsp mutant cells, cAMP HTRF, 30 min; control for the full effect not named in the record; Potency, µM (titrated, usually from 76.9 µM), for inactives: top-dose activation (cAMP increase), actives largely listed as activators; AID 624287; 0.13% of 340,000 active; active = well fitted activation curve with a large enough effect; inconclusive = small, poorly fitted or top-dose-only effect, or another doubt; inactive = no such curve, though single readings can be large or run the other way; cell line not stated here;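 note: phosphodiesterase inhibitor Ro 20-1724 added with compounds to block cAMP breakdown; potency is the fitted concentration of half-maximal effect; nearly all actives have a fitted effect of over 60% in size; about a fifth of the inactives were tested at one dose only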
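Cells in DMEM/10% FBS with G418 were pretreated with compounds in DMSO plus […] (300 uM stock) for 30 min at 37C. cAMP was measured by HTRF (cAMP-d2 plus anti-cAMP antibody-K) after 30 min at room temperature.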
gsp antagonist = gsp mutant antagonism | 0.4% of 340,000 active | AID 624288 | gsp-mutant cells, cAMP HTRF, 30 min; control for the full effect not named in the record | Potency, µM (doses to about 76.9 µM), without a hit: top-dose activity change, negative = inhibition, actives largely listed as inhibitors; active = falling curve of any shape with a large fitted effect; inconclusive = falling curve, mostly with a smaller effect; inactive = flat or rising curve; cell line not stated here;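 note: intracellular cAMP measured with PDE inhibitor Ro 20-1724 present during compound exposure; potency is the fitted concentration of half-maximal effect; % is set by controls: 0 for no effect and ±100 for the full control effect; nearly all actives have a fitted effect of over 65% in size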
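HTRF cAMP measurement after 30 min RT detection following 30 min, 37C compound treatment alongside […] (added as 300 uM solution) in G418-selected cells seeded at 2000/well and grown 16–24 h.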
Menin-MLL FL inh = menin-MLL binding inhibition, fluorescein peptide; Fluorescence polarization, fluorescein-MLL peptide displacement from menin; 290,000 tested, under 10 active; FP activity change, % at 61.4 µM; AID 1766; inconclusive = falling polarisation curve, or a change in total fluorescence; inactive = total fluorescence flat and polarisation flat or rising; no compound was filed as active; the % refers to the polarisation; negative = inhibition;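 note: % of control where 0% means no effect; inhibitors lower the polarisation; unlabelled MLL peptide was the positive control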
TRPML1 inh = human mucolipin-1 channel inhibition. AID 624415. 0.02% of 390,000 active. activity change, negative = inhibition, % (no concentration beside the values). Q9GZU1. TRPML1-inducible cells, Ca2+ dye fluorescence, FDSS; hits give low values; inhibition of EC80 agonist-evoked calcium signal; in the data active means activity change below about -50%; inconclusive means about -30% to -50%; inactive means above about -30%;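 note: stimulus is agonist 54-4 at its EC80 concentration; % is set by controls: 0 for no effect and ±100 for the full control effect; compound concentration not given in the record; the text of the record puts the active cut at -80%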
Target sequence (Q9GZU1 whole entry, looked up): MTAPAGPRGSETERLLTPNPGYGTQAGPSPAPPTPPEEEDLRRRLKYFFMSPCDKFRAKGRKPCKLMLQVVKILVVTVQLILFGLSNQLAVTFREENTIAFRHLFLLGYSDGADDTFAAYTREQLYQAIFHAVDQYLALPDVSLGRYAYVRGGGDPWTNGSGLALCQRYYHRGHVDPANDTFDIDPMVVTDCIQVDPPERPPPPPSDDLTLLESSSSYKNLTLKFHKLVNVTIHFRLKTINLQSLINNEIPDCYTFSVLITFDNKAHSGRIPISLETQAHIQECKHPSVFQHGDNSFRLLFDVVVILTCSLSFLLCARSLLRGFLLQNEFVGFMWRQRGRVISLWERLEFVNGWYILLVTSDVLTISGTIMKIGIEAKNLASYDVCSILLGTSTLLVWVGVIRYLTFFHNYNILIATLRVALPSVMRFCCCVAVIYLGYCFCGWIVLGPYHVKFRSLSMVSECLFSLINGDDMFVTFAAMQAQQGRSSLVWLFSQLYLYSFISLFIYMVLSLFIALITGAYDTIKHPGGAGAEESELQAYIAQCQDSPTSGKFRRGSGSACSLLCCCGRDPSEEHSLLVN
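Tet-induced TRPML1-DL cells loaded with Ca8 no-wash calcium dye were read kinetically on FDSS. Compound addition was followed by EC80 agonist 54-4 (4 uM final); inhibition was read over 110 s.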
Sfp PPTase inh = inhibitors of Bacillus subtilis Sfp phosphopantetheinyl transferase; Q9F4F7; Biochemical Sfp PPTase activity, qHTS; Potency, µM, inactives show max response, negative = inhibition, most hits filed as inhibitors; 3.5% of 310,000 active; AID 1490; active = well fitted inhibition curve with a large enough effect; inconclusive = small, poorly fitted or top-dose-only effect, or another doubt; inactive = no such curve, though single readings can be large or run the other way;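 note: the enzyme is Sfp with the accession as filed and its product quenches rhodamine fluorescence; potency is the fitted concentration of half-maximal effect; 0% = enzyme reaction without inhibitor and -100% = no enzyme wells; top concentration of the series not given in the record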
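Buffer: 50 mM Hepes-Na pH 7.6, 10 mM MgCl2, 0.01% Nonidet P-40, 0.01% BSA. Enzyme 15 nM, pre-exposed to compound 15 min; substrates then added and fluorescence change tracked over 30 min.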
ClpP mod = qHTS Assay for Activators of ClpP; 1.9% of 340,000 active; purified B. subtilis ClpP, FRET peptide cleavage, 20 min; Potency, µM (series often up to 57.5 µM), without a hit: top-dose activity change, negative = active; ATP-dependent Clp protease proteolytic subunit (Bacillus subtilis (strain 168)), P80244; active = well fitted falling curve with a large enough effect; inconclusive = small, poorly fitted or top-dose-only effect; inactive = no such curve, though single readings can be large or run the other way; note: potency is the fitted concentration of half-maximal effect; the source files actives as falling curves though it sought activators and does not explain the sign; nearly all actives have a fitted effect of over 65% in size; many hits overshoot -100%
Target sequence (P80244 whole entry, looked up): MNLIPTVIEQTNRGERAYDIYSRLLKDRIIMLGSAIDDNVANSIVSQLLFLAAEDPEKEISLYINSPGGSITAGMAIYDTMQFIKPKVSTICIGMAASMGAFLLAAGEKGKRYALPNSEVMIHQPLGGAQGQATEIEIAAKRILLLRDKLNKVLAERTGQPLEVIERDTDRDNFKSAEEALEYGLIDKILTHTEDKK
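Purified B. subtilis ClpP, 10 microg/mL final in Tris/HCl pH8 with KCl, BSA, glycerol and Tween-20, cleaved an Abz/nitrotyrosine-quenched decapeptide. Fluorescence (ex 320, em 430) was read at 0 and 20 min at room temperature. Delta was normalized to 5.8 microM ADEP and DMSO/no-enzyme controls.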
TRPV1 PAM = human TRPV1 potentiation | AID 540277 | potentiation, % at 8.33 µM | 0.02% of 320,000 active | Q8NER1 | TRPV1-expressing cells, Fluo-8 calcium influx, capsaicin EC20 potentiation; host cell line not named in the record; control for the full effect not named in the record; active means potentiation above 80%; inconclusive means 30% to 80%; inactive means below 30%; note: 0% is about no effect
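Fluo-8 calcium influx in TRPV1-expressing cells, kinetic read (ex 480/em 520 nm). Compound added and read 3 min for agonist activity, followed by capsaicin at EC20 final and 2 min further read for enhancement.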
An asterisk follows results filed as active; ? = inconclusive; · = not tested or not shown; & = joins results of further samples; [ ] = remark or other dose.

1	CCCCCCCCCCOC(=O)Cn1c(COc2ccccc2)[n+](C)c2ccccc21
2	Cc1cc(C)n2ncc(/C(N)=N/OC(=O)Nc3ccc(Cl)cc3)c2n1
3	CC(C)(C)OC(=O)CNC(=O)c1[nH]cnc1C(=O)Nc1ccc(CNC(=O)OC(C)(C)C)cc1
4	CCN(CC)S(=O)(=O)c1cc(NC(=O)Cc2n[nH]c(=O)c3ccccc23)ccc1C
5	Cc1ccc(-c2nc(N)n(C(=O)c3ccco3)n2)cc1
6	CC(O)C(NS(=O)(=O)c1ccc(Cl)cc1)C(=O)OCC(=O)N1CCN(c2ccccc2)CC1 (configuration not stated)
7	Cc1cc(C)c2c(N)c(C(=O)N/N=C/c3cccs3)sc2n1
8	O=c1c2ccccc2ncn1-c1ccc(Cl)cc1
9	CCCCCOC(=O)C1=C(C)NC(=O)NC1c1ccc2c(c1)OCO2 (configuration not stated)
10	CC(C)(C)NC(=O)/C(=C\c1ccccc1F)NC(=O)c1ccc([N+](=O)[O-])cc1

| assay / entry | 1 | 2 | 3 | 4 | 5 | 6 | 7 | 8 | 9 | 10 |
| --- | --- | --- | --- | --- | --- | --- | --- | --- | --- | --- |
| gsp ag | 2% | ? | -20% | 17%[15.4 µM] | 30%[15.4 µM] | 18% | -3%[15.4 µM] | 5%[15.4 µM] | -3%[15.4 µM] | -16% |
| gsp antagonist | 5% | 11% | -10% | -25% | -9% | 10% | -10% | -15%&-5% | 4% | 6% |
| Menin-MLL FL inh | -0.9 | -5.2 | -1.0 | 5.1 | -3.8 | 1.7 | ? | -9.8&-1.2 | -0.5 | -1.6 |
| TRPML1 inh | 11 | 7 | 5 | 29 | -6 | 3 | -2 | 2&48 | 1 | 24 |
| Sfp PPTase inh | 40µM* | -24% | 30% | 20% | 3% | 4% | 1% | 5%&24% | 5% | -1% |
| ClpP mod | -1.6% | -23% | -22% | · | 0.2% | -0.6% | · | 1.7%&0.7% | 0.4% | 0.7% |
| TRPV1 PAM | -29 | -17 | -23 | 25 | 6 | ? | 0 | 10&4 | -3 | 16 |

11	COCCn1cc(C(=O)N2CCN(C)CC2)c2c3ccccc3n(C)c2c1=O
12	Cc1cc(-c2cn3ccccc3n2)c(C)n1-c1ccccc1
13	CC(C)c1ccc(-c2c(C#N)c(N)nc3c2CCCCC3)cc1
14	CC1(C)CC(=O)C2=C(C1)OC(N)=C(C#N)C21C(=O)N2CCCc3cccc1c32 (configuration not stated)
15	O=S(=O)(c1ccc(F)cc1)N1CCN(CC(O)COCc2cccs2)CC1 (configuration not stated)
16	O=C(NC(=S)Nc1ccc2c(c1)OCCO2)c1ccc(F)cc1Cl
17	O=C(N/N=C/c1cccnc1)C12CC3CC(CC(C3)C1)C2
18	NC(=O)NC(CC(=O)NCc1ccc2c(c1)OCO2)c1ccccc1Cl (configuration not stated)
19	Cc1ccc(NC(=O)CSc2nc(CSc3ccc(C)cc3)cc(=O)[nH]2)cc1
20	Cc1ccc(NC(=S)NC(=O)c2ccccc2)cc1NC(=S)NC(=O)c1ccccc1

| assay / entry | 11 | 12 | 13 | 14 | 15 | 16 | 17 | 18 | 19 | 20 |
| --- | --- | --- | --- | --- | --- | --- | --- | --- | --- | --- |
| gsp ag | -2% | 30%[15.4 µM] | -51%[inhibitor] | 0% | ? | -3% | 24% | 24% | 26% | ? |
| gsp antagonist | -4% | · | 7% | 2% | 2% | -14% | 0% | -1% | -13% | 0% |
| Menin-MLL FL inh | -1.7 | 6.0 | 5.3 | 4.6 | 5.8 | 5.3 | -3.1 | -1.1 | 2.2 | 11 |
| TRPML1 inh | -19 | -3 | 14 | -12 | 13 | 21 | -2 | 8 | -15 | -2 |
| Sfp PPTase inh | 13% | -11% | 5% | 11% | -6% | 7% | 15% | 9% | -4% | 25µM* |
| ClpP mod | 11µM* | · | -11% | -1.0% | -1.9% | -20% | · | · | 2.0% | -0.2% |
| TRPV1 PAM | -2 | 9 | 10 | 7 | 5 | 7 | -3 | ? | 11 | 0 |

21	COc1ccc(OCC(=O)Nc2nnc(-c3ccco3)s2)cc1
22	COc1ccc(C(=O)NNC(=O)CSc2ccccc2)cc1
23	Cc1cc(Br)cc2c(C(=O)NCC3CCCO3)cc(-c3cccs3)nc12 (configuration not stated)
24	Cc1ccc(CSc2nc3ncccc3[nH]2)cc1
25	O=C(CCn1c(=O)oc2ccc(Cl)cc21)NCCCN1CCOCC1
26	CN(C)S(=O)(=O)c1ccc(C(=O)NN2C(=O)NC3(CCCCC3)C2=O)cc1
27	CC(C)CN(CC(C)C)C(=S)NC1CCCCC1
28	C=C[C@]1(C)C[C@@H](OC(=O)CSCCN(CC)CC)[C@]2(C)C(C)CC[C@]3(CCC(=O)[C@H]32)[C@@H](C)[C@@H]1O (some centres not stated)
29	C=CCN(C(=O)c1ccc2c(c1)nnn2C)c1ccccc1
30	COc1cc(CNn2c(C)n[nH]c2=S)cc(Cl)c1OCc1ccccc1

| assay / entry | 21 | 22 | 23 | 24 | 25 | 26 | 27 | 28 | 29 | 30 |
| --- | --- | --- | --- | --- | --- | --- | --- | --- | --- | --- |
| gsp ag | -3%[15.4 µM] | -5%[15.4 µM] | ? | 2% | 29% | -31%[inhibitor] | -3%[15.4 µM] | · | -6% | -21% |
| gsp antagonist | 8% | 8% | -2% | -3% | 23% | -10% | 3% | -4%&4% | 7% | -14% |
| Menin-MLL FL inh | 5.1 | 3.8 | · | 2.4 | · | · | 6.7 | -1.3 | -7.8 | -1.3 |
| TRPML1 inh | -3 | -6 | 15 | 10 | 0 | 8 | -4 | -3&-3 | 9 | 13 |
| Sfp PPTase inh | -15% | 6% | -12% | 16% | 16% | · | -8% | 14% | -2% | -16% |
| ClpP mod | 0.1% | 1.9% | 0.1% | 0.5% | 0.0% | -7.1% | 0.8% | 2.0%&-2.4% | · | -7.5% |
| TRPV1 PAM | -16 | 5 | -5 | -9 | 27 | 3 | -17 | -2&-5 | 4 | 10 |

31	CNC(=S)N1CCC(NC(=O)C(Cc2ccccc2)NC(C)=O)CC1 (configuration not stated)
32	C#CCn1c(=NC(=O)CN2C(=O)CCC2=O)sc2cccc(C)c21
33	O=C(CC(=O)NCc1ccccc1)NCc1ccccc1
34	Cc1cc(C)cc(-n2nnc(C(=O)NCc3ccc4c(c3)OCO4)c2N)c1
35	CCc1nc2ccc(C(=O)N(CC)CC(=O)Nc3c(F)cccc3F)cc2nc1CC
36	O=C(NC(=S)Nc1cccc(Cl)c1N1CCCCC1)c1ccco1
37	N/C(=N\OC(=O)c1ccco1)c1ccc(Br)cc1
38	CCOC(=O)C1CCN(S(=O)(=O)c2ccc(CNC(=O)c3ccccc3)s2)CC1
39	O=C(C1=C(O)C(=O)N(CC2CCCO2)C1c1ccc(Cl)cc1)c1ccco1 (configuration not stated)
40	O=C(Nc1ccccc1)NC1CC2CCC(C1)N2Cc1nnnn1Cc1ccc2c(c1)OCO2 (configuration not stated)

| assay / entry | 31 | 32 | 33 | 34 | 35 | 36 | 37 | 38 | 39 | 40 |
| --- | --- | --- | --- | --- | --- | --- | --- | --- | --- | --- |
| gsp ag | -26% | ? | 11%[15.4 µM] | -2% | 10% | -39%[inhibitor] | 2% | -26% | 2%[15.4 µM] | 6% |
| gsp antagonist | 9% | 1% | 4% | 3% | -4% | 0% | -6% | -11% | 12% | -8% |
| Menin-MLL FL inh | 0.8 | -2.5 | 2.5 | 5.4 | · | 1.2 | -0.8 | -4.4 | 3.6 | 1.7 |
| TRPML1 inh | 21 | 0 | 9 | -6 | 2 | 6 | 0 | · | 10 | 1 |
| Sfp PPTase inh | 15% | 17% | 18% | 5% | · | 16% | 6% | 1% | 14% | 13% |
| ClpP mod | 0.5% | -0.9% | · | -3.3% | -4.7% | -2.7% | 0.3% | -4.0% | · | 1.7% |
| TRPV1 PAM | -10 | ? | 7 | 29 | 2 | -4 | 1 | ? | 5 | -4 |

41	O=C(NC(CO)(CO)CO)c1coc(=O)c(Br)c1
42	CN(C)S(=O)(=O)c1cccc(C(=O)NCCCn2ccnc2)c1
43	COC(=O)c1ccccc1NC(=O)CSc1nc(N)cc(N)n1
44	O=C(Oc1cccc(C(=S)N2CCOCC2)c1)c1cccc([N+](=O)[O-])c1
45	COc1ccc(-n2c(COc3cccc4cccnc34)nnc2SCC(=O)O)cc1
46	Cc1ccc2[nH]c3nc(SCC#N)nnc3c2c1
47	Cc1cccc(-c2cc(C(=O)Nc3ccncc3)c3ccccc3n2)c1
48	CCOc1cc(/C=N/O)cc(Br)c1OCC
49	O=C(O)C1CCC(=O)N(C2CC2)C1c1ccccc1 (configuration not stated)
50	CC(=O)c1ccc2noc(-c3cccc(C)c3)c2c1
51	O=C(COC(=O)C1CC(=O)N(Cc2ccco2)C1)Nc1nc(-c2ccc(F)cc2)cs1 (configuration not stated)
52	O=C(c1ccccn1)N(Cc1ccco1)C1(C(=O)NC2CCCCC2)CCCCC1

| assay / entry | 41 | 42 | 43 | 44 | 45 | 46 | 47 | 48 | 49 | 50 | 51 | 52 |
| --- | --- | --- | --- | --- | --- | --- | --- | --- | --- | --- | --- | --- |
| gsp ag | 35% | 7%[15.4 µM] | 11% | -11%[15.4 µM] | ? | -8% | 2% | -3% | 1% | 4% | 31% | 10% |
| gsp antagonist | 15% | 22% | 3% | 7% | 1% | 7% | -12% | -17% | 11% | 0% | 4% | 2% |
| Menin-MLL FL inh | -2.3 | -4.6 | 1.8 | -0.1 | 2.3 | -0.4 | 1.5 | 2.6 | 1.5 | 2.5 | · | -0.8 |
| TRPML1 inh | 3 | 32 | 7 | -15 | -16 | 12 | 1 | 5 | 12 | -15 | -20 | 5 |
| Sfp PPTase inh | -9% | 18% | 5% | -22% | 24% | 13% | 3% | 23% | 10% | -8% | · | 8% |
| ClpP mod | 73% | 1.3% | -3.7% | · | -7.6% | · | -7.6% | 0.5% | 0.9% | · | 2.1% | 0.2% |
| TRPV1 PAM | -14 | -1 | · | -21 | 3 | 19 | -10 | -1 | 20 | -15 | · | -17 |
